From PubChem BioAssay
UUG fidelity = modulators of start codon recognition fidelity in yeast. S. cerevisiae UUG-firefly luciferase reporter, luminescence/redox ratio. activity score, % at 18.7 µM. hit rate 0.13% among 350,000. AID 602363;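 active = replicate mean at a twofold rise or more, about +100% in these data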;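 note: firefly luciferase made from a UUG start codon reports start codon fidelity; reporter light over untreated wells divided by growth signal over untreated wells; some hits fall short of that in this replicate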
Env fusion inh = blocks HIV Env-driven cell-cell fusion; HeLa-JRFL Env/CEM21 cell fusion, luciferase; inhibition, % at 12.3 µM; hit rate 1.1% among 360,000; AID 651610;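 active = mean replicate inhibition score of at least 50 and every replicate individually at or above 50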;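 note: 0% = plate neutral controls and 100% = maraviroc near 300 nM; one replicate is shown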
* = called active by the depositor; [ ] = another dose, or the depositor's remark. Some of the compounds tested (hit frequency here may not be typical).

SMILES | UUG fidelity | Env fusion inh
Cc1noc(C)c1NC(=O)Nc1ccc2c(c1)C(=O)N([C@H](C)CO)C[C@@H](C)[C@@H](CN(C)S(=O)(=O)c1ccc(Cl)cc1)O2 | -3 | -29[16.7 µM]
C[C@@H]1CN([C@@H](C)CO)C(=O)Cc2cc(NC(=O)CCC(F)(F)F)ccc2O[C@H]1CN(C)C(=O)Nc1ccc2c(c1)OCO2 | -1 | -2[16.7 µM]
O=C(Cc1ccncc1)N[C@@H]1CC[C@H](CCn2cc(-c3ccccc3F)nn2)O[C@@H]1CO | -4 | -5[16.7 µM]
C[C@@H]1CN([C@H](C)CO)C(=O)c2cc(C3=CCCCC3)cnc2O[C@@H]1CN(C)C(=O)Cc1cccnc1 | -13 | 14[16.7 µM]
Cc1ccc(-c2cnc3c(c2)C(=O)N([C@@H](C)CO)C[C@@H](C)[C@@H](CN(C)CC2CCOCC2)O3)cc1 | -2 | -2[16.7 µM]
O=C(C[C@@H]1C[C@@H]2c3cc(NC(=O)Nc4ccccc4)ccc3O[C@@H]2[C@@H](CO)O1)NCc1ccccn1 | -9 | -9[16.7 µM]
COc1ccc(S(=O)(=O)N(C)C[C@H]2Oc3ccc(NS(=O)(=O)c4ccccc4)cc3CC(=O)N([C@@H](C)CO)C[C@@H]2C)cc1 | -5 | 0[16.7 µM]
C[C@H]1CN([C@@H](C)CO)C(=O)Cc2cc(NC(=O)CCCCCC(=O)Nc3ccccc3N)ccc2O[C@H]1CN(C)Cc1ccc(-c2ccccc2)cc1 | 4 | 4[16.7 µM]
COc1ccc(S(=O)(=O)N(C)C[C@H]2Oc3ccc(NC(=O)CCN4CCOCC4)cc3C(=O)N([C@@H](C)CO)C[C@H]2C)cc1 | 13 | -15[16.7 µM]
C[C@@H]1CN([C@H](C)CO)C(=O)Cc2cc(NC(=O)C3CC3)ccc2O[C@H]1CN(C)CC1CCCCC1 | -12 | 4[16.7 µM]
Cc1ccc(S(=O)(=O)N(C)C[C@@H]2OCCCC[C@H](C)Oc3ccc(N(C)C)cc3C(=O)N([C@@H](C)CO)C[C@@H]2C)cc1 | 14 | -7[16.7 µM]
Cc1cccc(N2CCN(C(=O)c3[nH]c(C(F)(F)F)nc3-c3ccccc3)CC2)c1C | -8 | 38
C[C@@H]1CN([C@@H](C)CO)C(=O)Cc2cc(NS(=O)(=O)c3cccs3)ccc2O[C@@H]1CN(C)S(=O)(=O)c1ccc(F)cc1 | 5 | -1[16.7 µM]
Cc1ccc(S(=O)(=O)N(C)C[C@@H]2Oc3ccc(NS(=O)(=O)c4c(C)noc4C)cc3CC(=O)N([C@H](C)CO)C[C@@H]2C)cc1 | 8 | 62*[16.7 µM]
CCCNC(=O)N1C[C@@H](C)[C@H](OC)CN(C)C(=O)c2ccc(NS(C)(=O)=O)cc2OC[C@H]1C | -3 | 0[16.7 µM]
C/C=C/c1cnc2c(c1)C(=O)N([C@@H](C)CO)C[C@@H](C)[C@@H](CN(C)C(=O)Cc1ccccc1)O2 | 1 | 12[16.7 µM]
CCC(=O)N(C)C[C@H]1Oc2cc(-c3cccnc3)ccc2S(=O)(=O)N([C@H](C)CO)C[C@@H]1C | -12 | 5[16.7 µM]
COc1cccc(-c2ccc3c(c2)O[C@@H](CN(C)C(=O)C2CC2)[C@H](C)CN([C@@H](C)CO)S3(=O)=O)c1 | 6 | -13[16.7 µM]
C=CC1c2cc(OC)c(OC)cc2CC(C)N1Cc1ccc(OC)cc1 (stereo not drawn) | -4 | -146[16.7 µM]
COc1cccc(NC(=O)N2C[C@H](O)COC[C@H]3O[C@H](CC(=O)N(C)C)CC[C@@H]32)c1 | -7 | -2[16.7 µM]
Cc1noc(C)c1NC(=O)Nc1ccc2c(c1)CC(=O)N([C@H](C)CO)C[C@H](C)[C@H](CN(C)CC1CC1)O2 | 1 | -23[16.7 µM]
Cn1cnc(S(=O)(=O)N[C@H]2C=C[C@H](CC(=O)NCC3CC3)O[C@@H]2CO)c1 | 8 | -21[16.7 µM]
C[C@H](CO)N1C[C@H](C)[C@@H](CN(C)CC2CCOCC2)Oc2ncc(-c3cccc(F)c3)cc2C1=O | 157* | 7[16.7 µM]
CCS(=O)(=O)N[C@H]1C=C[C@@H](CC(=O)NCc2ccc(Cl)cc2)O[C@H]1CO | -6 | -1[16.7 µM]
O=C(Nc1ccc(Cl)cc1)N[C@H]1CC[C@@H](CCn2cc(Cc3ccccc3)nn2)O[C@@H]1CO | -16 | -27[16.7 µM]
COc1ccc(-c2cn(CC[C@@H]3CC[C@@H](NC(=O)c4cnccn4)[C@H](CO)O3)nn2)cc1 | -8 | 21[16.7 µM]
C[C@@H]1CN([C@@H](C)CO)C(=O)c2cc(/C=C/c3ccccc3)cnc2O[C@@H]1CN(C)S(=O)(=O)c1cccs1 | 3 | -8[16.7 µM]
O=C(N[C@H]1C=C[C@H](CC(=O)N2CCCCC2)O[C@H]1CO)c1cccc(F)c1 | -16 | -15[16.7 µM]
CC(=O)c1cccc(NC(=O)c2cccc3c(-c4cccnc4)coc23)c1 | -9 | -8
COc1ccc(NC(=O)Nc2cccc3c2O[C@H](CN(C)C(=O)Nc2ccc(C(F)(F)F)cc2)[C@H](C)CN([C@@H](C)CO)C3=O)cc1 | 26 | -75[16.7 µM]

An excerpt of these results, with values under each structure.
Order of values: UUG fidelity | Env fusion inh
> CCS(=O)(=O)N[C@H]1C=C[C@@H](CC(=O)NCc2ccc(Cl)cc2)O[C@H]1CO
→ -6 | -1[16.7 µM]
> COc1cccc(NC(=O)N2C[C@H](O)COC[C@H]3O[C@H](CC(=O)N(C)C)CC[C@@H]32)c1
→ -7 | -2[16.7 µM]
> C=CC1c2cc(OC)c(OC)cc2CC(C)N1Cc1ccc(OC)cc1 (stereo not drawn)
→ -4 | -146[16.7 µM]
> C[C@@H]1CN([C@@H](C)CO)C(=O)c2cc(/C=C/c3ccccc3)cnc2O[C@@H]1CN(C)S(=O)(=O)c1cccs1
→ 3 | -8[16.7 µM]
> COc1ccc(NC(=O)Nc2cccc3c2O[C@H](CN(C)C(=O)Nc2ccc(C(F)(F)F)cc2)[C@H](C)CN([C@@H](C)CO)C3=O)cc1
→ 26 | -75[16.7 µM]

Remaining list, next part:
SMILES | UUG fidelity | Env fusion inh
COCc1cn(CC[C@H]2CC[C@@H](NC(=O)Nc3ccc(OC)cc3)[C@H](CO)O2)nn1 | -2 | -23[16.7 µM]
COc1ccccc1C(=O)Nc1ccc2c(c1)C(=O)N(C)C[C@H](OC)[C@H](C)CN(CC1CC1)[C@@H](C)CO2 | 2 | -9[16.7 µM]
COc1ccc(NC(=O)N(C)C[C@@H]2OCCCC[C@H](C)Oc3ccc(NC(=O)Nc4ccc5c(c4)OCO5)cc3C(=O)N([C@@H](C)CO)C[C@H]2C)cc1 | 7 | 23[16.7 µM]
Cc1ccc(S(=O)(=O)N[C@H]2CC[C@@H](CC(=O)NCCN3CCCCC3)O[C@@H]2CO)cc1 | -12 | -17[16.7 µM]
C[C@H](CO)N1C[C@H](C)[C@@H](CN(C)Cc2ccc(C(F)(F)F)cc2)OCCCC[C@H](C)Oc2ccc(NS(=O)(=O)c3cccs3)cc2C1=O | -1 | -10[16.7 µM]
C[C@H](O)C#Cc1ccc2c(c1)O[C@@H](CN(C)Cc1cncnc1)[C@H](C)CN([C@@H](C)CO)S2(=O)=O | 6 | -2[16.7 µM]
C[C@H]1CN([C@@H](C)CO)S(=O)(=O)c2ccc(C#CCN(C)C)cc2O[C@H]1CN(C)Cc1cccnc1 | -16 | -18[16.7 µM]
O=C(C[C@@H]1C[C@@H]2c3cc(NC(=O)Nc4ccccc4F)ccc3O[C@@H]2[C@H](CO)O1)NC1CCCC1 | -7 | -4[16.7 µM]
O=C(C[C@H]1CC[C@@H](NC(=O)C2CC2)[C@@H](CO)O1)NCCCN1CCOCC1 | -16 | -1[16.7 µM]
CC(C)C#Cc1cnc2c(c1)C(=O)N([C@@H](C)CO)C[C@H](C)[C@@H](CN(C)Cc1ccccc1F)O2 | 5 | 16[16.7 µM]
CN(C)C(=O)c1ccc(-c2ccc([C@@H]3[C@@H](CO)N(C(=O)C4CCCC4)[C@H]3C#N)cc2)cc1 | 32 | 3[16.7 µM]
CC(C)CC#Cc1cnc2c(c1)C(=O)N([C@H](C)CO)C[C@@H](C)[C@H](CN(C)C(=O)c1ccc3c(c1)OCO3)O2 | 0 | 21[16.7 µM]
C[C@@H]1CN([C@H](C)CO)C(=O)Cc2cc(N(C)C)ccc2O[C@@H]1CN(C)S(=O)(=O)c1cccs1 | -11 | 3[16.7 µM]
CO[C@@H]1CN(C)C(=O)c2cc(NS(=O)(=O)c3ccccc3)ccc2OC[C@H](C)N(C)C[C@@H]1C | -1 | -10[16.7 µM]
C[C@@H]1CCCCO[C@@H](CN(C)Cc2ccc(Cl)c(Cl)c2)[C@H](C)CN([C@H](C)CO)C(=O)c2cc(NC(=O)NC3CCCCC3)ccc2O1 | 2 | 72*[16.7 µM]
CNC[C@H]1Oc2cc(C#CCC(C)C)ccc2S(=O)(=O)N([C@@H](C)CO)C[C@@H]1C | -3 | 16[16.7 µM]
O=C(C[C@H]1C[C@@H]2c3cc(NC(=O)Cc4ccncc4)ccc3O[C@@H]2[C@@H](CO)O1)NCc1ccc2c(c1)OCO2 | -14 | -11[16.7 µM]
CNC[C@@H]1Oc2cc(C#Cc3ccc(F)cc3)ccc2S(=O)(=O)N([C@H](C)CO)C[C@H]1C | 5 | -35[16.7 µM]
C[C@@H]1CCCCO[C@H](CN(C)S(=O)(=O)c2cccs2)[C@H](C)CN([C@H](C)CO)C(=O)c2cc(NC(=O)NC3CCCCC3)ccc2O1 | -10 | 26[16.7 µM]
O=C(NC1CCCCC1)N[C@@H]1CC[C@H](CCNS(=O)(=O)c2ccc(Cl)cc2)O[C@H]1CO | 17 | 19[16.7 µM]
O=C(C[C@H]1C[C@@H]2c3cc(NC(=O)C4CCC4)ccc3O[C@@H]2[C@@H](CO)O1)NC1CCCCC1 | 0 | -12[16.7 µM]
C[C@@H]1CN([C@H](C)CO)C(=O)c2cc(NS(=O)(=O)c3ccc(Cl)cc3)ccc2O[C@@H](C)CCCCO[C@H]1CN(C)C(=O)C1CCCCC1 | -7 | -74[16.7 µM]
C[C@@H]1CN([C@H](C)CO)C(=O)c2cc(C#Cc3ccccc3)cnc2O[C@H]1CN(C)C(=O)C1CC1 | 5 | 5[16.7 µM]
C[C@@H]1CCCCO[C@@H](CN(C)C(=O)CCC(F)(F)F)[C@@H](C)CN([C@@H](C)CO)C(=O)c2cc(NS(=O)(=O)c3ccc(F)cc3)ccc2O1 | 2 | -10[16.7 µM]
Cc1noc(C)c1NC(=O)Nc1ccc2c(c1)C(=O)N([C@H](C)CO)C[C@@H](C)[C@@H](CN(C)Cc1ccncc1)OCCCC[C@H](C)O2 | -6 | -7[16.7 µM]
COc1ccc(NC(=O)N(C)C[C@@H]2Oc3c(NS(=O)(=O)c4ccc(F)cc4)cccc3C(=O)N([C@@H](C)CO)C[C@H]2C)cc1 | -2 | 0[16.7 µM]
CC(C)C(=O)Nc1ccc2c(c1)C(=O)N(C)[C@@H]1CC[C@@H](CC(=O)NCC3CC3)O[C@@H]1CO2 | 2 | 0[16.7 µM]
C[C@H](CO)N1C[C@H](C)[C@@H](CN(C)S(=O)(=O)c2cccs2)OCCCC[C@H](C)Oc2ccc(NC(=O)Nc3ccccc3)cc2C1=O | -7 | -25[16.7 µM]
Cc1ccc(S(=O)(=O)Nc2cccc3c2O[C@H](CN(C)C)[C@H](C)CN([C@H](C)CO)C3=O)cc1 | 8 | 3[16.7 µM]
C[C@H]1CN([C@@H](C)CO)S(=O)(=O)c2ccc(C#Cc3ccncc3)cc2O[C@@H]1CN(C)C | -25 | 7[16.7 µM]
CCC(=O)N(C)C[C@@H]1Oc2cc(C#CCC(C)C)ccc2S(=O)(=O)N([C@@H](C)CO)C[C@@H]1C | 76 | 11[16.7 µM]
Cc1ccc(S(=O)(=O)Nc2ccc3c(c2)C(=O)N([C@@H](C)CO)C[C@@H](C)[C@@H](CN(C)C(=O)Nc2ccc(F)cc2)O3)cc1 | 11 | 1[16.7 µM]
COCCNC(=O)C[C@H]1CC[C@H]2[C@H](COc3ccc(NC(C)=O)cc3C(=O)N2C)O1 | 13 | -10[16.7 µM]
C[C@@H]1CN([C@H](C)CO)S(=O)(=O)c2ccc(-c3cncnc3)cc2O[C@@H]1CN(C)C(=O)C1CCCCC1 | 2 | 9[16.7 µM]
COCC(=O)N[C@@H]1CC[C@@H](CC(=O)N2CCCCC2)O[C@@H]1CO | -1 | 8[16.7 µM]
C[C@@H]1CCCCO[C@@H](CN(C)Cc2ccc(C(=O)O)cc2)[C@H](C)CN([C@@H](C)CO)C(=O)c2cc(NS(C)(=O)=O)ccc2O1 | -7 | -5[16.7 µM]
O=C(C[C@H]1C=C[C@@H](NC(=O)c2cccnc2)[C@@H](CO)O1)NCc1ccc(Cl)c(Cl)c1 | 2 | -17[16.7 µM]
C[C@H](CO)N1C[C@H](C)[C@@H](CN(C)Cc2ccccc2C(=O)O)Oc2cc(-c3ccccc3)ccc2S1(=O)=O | 14 | -32[16.7 µM]
C[C@@H]1CN([C@H](C)CO)C(=O)Cc2cc(NC(=O)Cc3cn(C)c4ccccc34)ccc2O[C@H]1CN(C)CC1CC1 | -3 | -4[16.7 µM]
Cc1ccc(S(=O)(=O)N2C[C@H](O)COC[C@@H]3O[C@H](CC(=O)NCc4ccc5c(c4)OCO5)CC[C@H]32)cc1 | 3 | -6[16.7 µM]
